Screens (PubChem BioAssay)
Ab BasE inh: BasE siderophore biosynthesis inhibition | purified BasE, fluorescence polarization binding displacement | inhibition, % (test concentration not listed) | 84,000 compounds, 0.1% hits | AID 485350;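 active = both replicates above 25% with normal brightness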;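 note: 0% = negative plate control signal and 100% = positive plate control signal; stock transfer was 100 nL into about 30 µL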
LANA-nucl inh: inhibitors of KSHV LANA binding to nucleosomes; FITC-LANA1-23 / chicken nucleosome fluorescence polarization; active compounds read low; z-score (no concentration beside the values); 51,000 compounds, 0.3% hits;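 active = both repeat wells score below -2 in polarization z-score versus plate sample wells, excluding overly bright wells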;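 note: 100 nL library stock added to about 30 µL; numbers are from one replicate; some results filed as inactive read as strong as hits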
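Assay system: FITC-LANA peptide and chicken nucleosomes; input: 240 nM purified chicken nucleosomes (480 nM peptide binding sites), final; also added: 50 nM FITC-LANA1-23 probe; medium: TEN-BT buffer, pH 7.5; doses: pin-transferred compound, 100 nL; times: 10–45 min, room temperature; technique: fluorescence polarization; replication: duplicates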
Starred values were filed as active, the others as inactive; · = no result given; & = joins results of further samples.

SMILES	Ab BasE inh	LANA-nucl inh
CC1CCCC1OP1(=O)CC=CC1 (stereo not given)	0.5	·
COc1ccccc1CC(=O)Nc1ccc(-c2nnc(-c3ccccc3)o2)cc1	1.1	-0.03
N#Cc1ccsc1NC(=O)Cc1cccs1	-2.1	·
COC(=O)C(Cc1ccccc1)NC(=O)c1ccc2c(c1)C(=O)N(Cc1ccco1)C2=O (stereo not given)	2.0	·
CCCN1CCN(CCCNC(=S)Nc2ccc(F)cc2)CC1	-0.8	-0.12
Nc1ccc(C(=O)N/N=C/c2ccccc2)cc1	-2.0	-0.72
C/C(=N\NC(N)=S)c1ccc(O)cc1	0.5	-0.37
Cc1ccc(S(=O)(=O)NCc2nc3ccccc3c(=O)n2N)cc1	4.6	-0.12
CN1CCN(C(CNC(=O)c2ccco2)c2ccc3c(c2)OCO3)CC1 (stereo not given)	-0.3	-0.82
COC(=O)c1cc(CSc2nnc(NCc3ccccc3)s2)oc1C	0.1	·
C=C(C)C1CC=C(C)C(=O)C1 (stereo not given)	-1.8	·
COCCNC(=O)c1cc(S(=O)(=O)N2CCOCC2)cn1C	1.6	1.3
Cc1ccc2cc(CCNC(=O)c3ccc(S(=O)(=O)N4CCOCC4)cc3)c(=O)[nH]c2c1C	-4.2	0.29
COC(=O)c1ccc(/C=N/n2cc(-c3ccccc3)[nH]c2=S)cc1	3.5	·
CC(CC(=O)O)NC(=O)c1ccc(OC(F)F)cc1 (stereo not given)	2.0	·
Cc1ccc2c(c1)NC(C)c1ccccc1O2 (stereo not given)	-1.1	·
O=C(Nc1ccc2snnc2c1)NC1CC1	-3.9	0.66
CCCCC/C=C\C[C@@H](O)/C=C/C=C\C/C=C\CCCC(=O)O	-3.8	1.5
O=c1c(Cl)c(N2CCCC2)cnn1-c1ccccc1	-2.9	·
CCN(C(=O)CSc1cccc[n+]1[O-])C1CCCCC1	2.9	·
CCOc1ccc(-c2cnc3ccccc3n2)cc1	-2.2	0.0015
CCOCCn1ccc2c(OCC(=O)NC(C)(C)C)cccc2c1=O	-1.3	0.42
Nc1nc(N)nc(COC(=O)CSCc2ccc(Cl)c(Cl)c2)n1	-4.1	·
N#Cc1ccccc1NC(=O)C1=COCCO1	2.7	-1.6
c1ccc(CN2CCC(c3cccs3)=N2)cc1	1.2	·
CN(C)c1ccc(/C=N/OCC(=O)Nc2ccccc2C#N)cc1	-1.2	·
COc1ccc(N2CC(NC(=O)N3CC(C)OC(C)C3)CC2=O)cc1 (stereo not given)	1.8	-1.1
C=CCOc1ccc(CNC(C)(C)C)cc1	0.0	·
O=C(NCc1ccco1)c1cc2cc(Br)ccc2oc1=O	-0.2	-0.3
N#CC1=C(SCC(=O)Nc2ccccc2)NC(=O)CC1c1ccccc1 (stereo not given)	0.8	·
CNC(=O)c1ccc(NC(=O)Nc2ccccc2)cc1	-0.7	-0.84
CC1C(=O)CCC1(C(=O)Nc1ccccc1)c1ccccc1 (stereo not given)	3.6	0.55
COc1ccccc1-n1cnnc1SCC(N)=O	-1.0	·
N#Cc1c(NC(=O)c2cc(-c3cccs3)nc3ccccc23)oc(-c2ccco2)c1-c1ccco1	1.2	·
N#CC(=C1SCCCS1)S(=O)(=O)c1cccs1	1.5	·
COC(=O)c1cc(NC(=O)CNC2CCCCCC2)cc(C(=O)OC)c1	3.1	·
Cc1ccccc1OC(=O)c1ccc2ncsc2c1	12	·
Cc1ccc(Oc2cnc3ccccc3n2)cc1	·	0.71
CCCCNC(=O)c1cc2c(-c3cccc(OC)c3)nn(C)c2s1	0.1	-0.2
O=c1c2ccccc2nc(SCCN2CCCCC2)n1CC1CCCO1 (stereo not given)	0.0	-0.43
COc1ccc(/C=N/N2C(=O)c3ccccc3C2=O)cc1OC	3.2	0.13
c1ccc(CC2CCN(Cn3cnc4ccccc43)CC2)cc1	3.1	·
O=C(O)Cc1c[nH][nH]c1=O	-1.4	-0.27
CC1CCN(C(=O)c2cc3c(=O)n4ccccc4nc3n2C)CC1	0.8	·
Cc1ccc(C(=O)O/N=C(/c2nonc2N)N(C)C)cc1	-2.6	-1
CN1CCCN(C(=O)c2cc(S(=O)(=O)N(C)c3ccc(F)cc3)ccc2Cl)CC1	1.0	·
O=S(=O)(NCCSc1nnc(-c2ccco2)n1-c1ccccc1)c1ccccc1	0.2	2
CC1(C)CC(=O)C=C(N)C1	1.4	·
CC1=C(C#N)C(c2ccc(CN3C(=O)c4ccccc4C3=O)o2)C2=C(CCCC2=O)N1 (stereo not given)	0.6	-0.12
CC(C)NC(=O)CSc1nncn1-c1ccccc1	1.3	·
O=C(NCCc1ccccc1)Nc1c[nH]c(=O)[nH]c1=O	0.8	0.16
CC1=CC(C)(C)Nc2ccccc21	1.8	-0.67
CC1(C)CC(NCc2cc(Cl)c3c(c2)OCCCO3)CC(C)(C)N1	-24	·
COc1ccc(S(=O)(=O)c2c(N)n(CC3CCCO3)c3nc4ccccc4nc23)cc1 (stereo not given)	1.4	-1.2
COc1ccc(/C=C2/C(=O)C(C(C)C)=CCC2C)cc1 (stereo not given)	2.5	·
COc1ccc(N2CCN(CC(NS(=O)(=O)c3ccccc3)c3ccccc3)CC2)cc1 (stereo not given)	0.6	·
COc1ccc(S(=O)(=O)Nc2ccc3c(c2)n(C)c(=O)n3C)cc1C(=O)N1CCCCCC1	-7.0	2.3
NC(=O)COc1ccc(Br)cc1	-1.0	0.4
OCCN1CCN(c2ncnc3sc(-c4ccccc4)cc23)CC1	-2.6	·
O=c1c2ccccc2c(C=Nc2cccc(C(F)(F)F)c2)c(O)n1-c1ccccc1	1.2	·
(list continues)
SMILES	Ab BasE inh	LANA-nucl inh
c1ccc2[nH]c(C3CC3)nc2c1	-2.2	0.84
O=c1[nH]c2ccc(Cl)cc2c(-c2ccccc2)c1N1CCN(c2ccccn2)CC1	1.0	-0.72
CC(OC(=O)Cn1ccc(=O)[nH]c1=O)C(=O)c1ccc(C(C)(C)C)cc1 (stereo not given)	0.9	·
C=CCn1c(Sc2ncnc3sccc23)nc2ccccc2c1=O	-1.4	·
O=C(CSCc1ccccc1)N1CCN(S(=O)(=O)c2cccs2)CC1	5.1	·
CC1=Cc2nc3ccccc3n2C2(C(F)(F)F)OC(c3cccs3)=NN12 (stereo not given)	-1.5	·
CC1CCC(C(C)C)C(NC(=O)c2cccc3ccccc23)C1 (stereo not given)	2.6	·
Cc1ccc(NC(=O)CC(NCCN2CCOCC2)C(=O)O)cc1Cl (stereo not given)	-1.9	·
CCOC(=O)c1c(CS(=O)Cc2ccc(Cl)cc2)oc2c(F)c(F)c(F)c(F)c12 (stereo not given)	1.6	-0.98
CN(CC1CCCO1)C1CCN(C(=S)Nc2cc(F)cc(F)c2)CC1 (stereo not given)	-2.8	0.59
Cc1cc(C)n2c(Br)c(CN3CC(C)CC(C)C3)nc2n1 (stereo not given)	-0.2	·
N#Cc1c(SCC(=O)NCCc2ccccc2)sc2c(=O)[nH]c(=O)[nH]c12	1.2	1.1
CCCNC(=O)c1ccc(CS(=O)Cc2cccc(Cl)c2)o1 (stereo not given)	-0.7	-0.18
Cc1ccc(Cl)cc1N/C=C/C(=O)C(C)(C)C	3.1	0.61
COc1cc(CN(CC2CCCO2)C(=O)c2ccco2)cc(OC)c1OC (stereo not given)	0.5	0.47
O=c1[nH]c2ccc3nsnc3c2[nH]c1=O	-3.0	1.6
O=C(O)c1cccc(N=Nc2sc3ccccc3c2O)c1	-1.6	0.25
Cc1noc(C)c1COC(=O)c1ccc(S(=O)(=O)C(F)F)cc1	-1.2	·
O=c1[nH]c(=S)[nH]c2[nH]c(=S)[nH]c12	2.2	·
Cc1ccc(NC(=O)COc2ncnc3c2cnn3-c2ccccc2)cc1	0.3	·
CCc1nnc2c3c4c(sc3nc(C)n12)CCC4	3.5	·
COc1cc(CCC(=O)NCC(c2ccc(F)cc2)N2CCOCC2)cc(OC)c1OC (stereo not given)	0.5	·
Cc1ccc(S(=O)(=O)C(CC(=O)c2ccc(F)cc2)c2ccco2)cc1 (stereo not given)	-0.7	0.084
FC(F)(F)Oc1ccc(C2c3ccsc3CCN2Cc2ccccn2)cc1 (stereo not given)	·	0.28
N=C1/C(=C/c2cccs2)C(=O)N=C2SC=C(c3ccccc3)N12	-3.3	·
CCc1ccc(-n2[nH]nnc2=S)cc1	-3.4	·
CC(=O)Nc1nnc(SCc2ccccc2)s1	-1.7	·
CCN(CC)c1ccc(N)c(C)c1	0.3	-0.69
CC(C)C(=O)N(Cc1ccccn1)c1nc2ccccc2s1	-4.1	-0.33
CCS(=O)(=O)CCSc1nc(C)cc(C)n1	0.2	·
O=C(c1ccc2nc[nH]c2c1)N1CCN(C/C=C/c2ccccc2)CC1	-1.4	·
Cn1c(=NC(=O)CSCC(=O)N2CCN(c3ccccc3)CC2)sc2ccccc21	-0.2	0.21
CCOC(=O)c1ccc(NC(=O)n2ncc3cc(Cl)ccc32)cc1	-0.9	-0.16
Cc1noc(C)c1CSCC(=O)Nc1c2ccccc2n2c(C)nc3ccccc3c12	-2.9	·
O=C(CSc1nnnn1-c1ccccc1)c1ccccc1	-2.0	·
N#Cc1nc(Cc2ccccc2)oc1N1CCC(Cc2ccccc2)CC1	-0.6	0.38
CCOC(=O)C1=C(CC)Nc2ccccc2N=C1NC(=O)Nc1ccccc1OC	2.6	·
Cc1cccc(C(=O)NCC(=O)N2CCN(S(=O)(=O)/C=C/c3ccccc3)CC2)c1	-0.6	·
COc1ccc(-c2noc(CN(C)C(=O)c3ccccc3)n2)cc1	1.5	-0.58
O=C1CCCN1CN(C(=O)c1ccccc1)c1cccc(Cl)c1	0.6	-0.72
CCOC(=O)C1C(=O)OC(C)(C)C1C(=O)OCC (stereo not given)	0.2	-0.8
C=CCn1c(SCC(=O)Nc2ccc3[nH]c(=O)[nH]c3c2)nnc1-c1ccccc1F	1.1	·
CCC(C)n1c(NC(=O)c2ccccc2)c(C#N)c2nc3ccccc3nc21 (stereo not given)	-33	·
CC(NC(=O)CSc1ncccn1)c1ccccc1 (stereo not given)	2.6	-0.38
NNC(=O)Cc1cc(Br)sc1Br	-0.9	·
C=CCn1c(=S)[nH]c2ccccc2c1=O	-1.0&4.0	-0.75
CC(C)c1cc(C(C)C)c(S(=O)(=O)n2ccnc2)c(C(C)C)c1	-0.7	·
O=S(=O)(NCC1CCCO1)c1ccc2ccccc2c1 (stereo not given)	1.7	1.3
CC(C)OC(=O)CSc1nc2cc3c(cc2cc1C#N)OCO3	-0.7	0.93
Cc1ccc2c(c1)c(C1=NC(=S)NC1=O)c(O)n2C	2.9	0.39
O=C(/C=C(\O)c1ccccc1)C(=O)Nc1ccccn1	3.4	-0.44
COc1cc(/C=N/NC(=O)CC2(C)SCCS2)ccc1O	3.0	·
CCC1CCCCN1C(=S)NC1CCCCC1 (stereo not given)	1.4	·
COc1cc(C2NC(=O)NC3=C2C(=O)N(Cc2ccc(F)cc2)C3)cc(OC)c1OC (stereo not given)	-0.3	·
O=C(O)CCCC(=O)c1ccccc1	2.5	·
Cc1c(C)c(C)c(CSC2=NCN(C)CN2)c(C)c1C	1.4	·
Cc1ccc(S(=O)(=O)C(=O)Nc2cccc3nsnc23)cc1	-0.5	0.35
CN(C)CCNC(=O)c1ccc(N2CCOc3ccccc32)s1	0.3	1.7
CC(C)=CC(=O)N1CCN(S(=O)(=O)c2ccc(C)cc2)CC1	-1.1	·
CCOc1ccc(/C(O)=C2\C(=O)C(=O)N(CCN(CC)CC)C2c2ccc(Cl)cc2)cc1C (stereo not given)	0.8	·
Next part.
SMILES	Ab BasE inh	LANA-nucl inh
O=C(Cc1ccsc1)OCC(=O)N1CCN(S(=O)(=O)c2ccc(Cl)cc2)CC1	0.5	·
COc1ccc(-c2nnc(SC(C)C(=O)NC34CC5CC(CC(C5)C3)C4)o2)cc1 (stereo not given)	-1.6	·
COc1ccc(/C=C2\CCCC3=C2NC(=S)NC3c2ccc(OC)cc2)cc1 (stereo not given)	-0.7	·
CC(C)OC(=O)c1cccc(C(=O)O)n1	-2.6	0.58
CCc1ccc(C(N)c2cccc(F)c2)cc1 (stereo not given)	4.4	·
CC(C)N(C)C1CCN(S(=O)(=O)c2ccc(-c3ccc(=O)[nH]n3)s2)CC1	-1.2	0.071

Reprinted at random: 2 entries already listed, in no set order.
SMILES	Ab BasE inh	LANA-nucl inh
N#Cc1c(SCC(=O)NCCc2ccccc2)sc2c(=O)[nH]c(=O)[nH]c12	1.2	1.1
N#CC1=C(SCC(=O)Nc2ccccc2)NC(=O)CC1c1ccccc1 (stereo not given)	0.8	·

Of the compounds above, these have an aryl thioether with sulfur outside any ring:
SMILES	Ab BasE inh	LANA-nucl inh
COC(=O)c1cc(CSc2nnc(NCc3ccccc3)s2)oc1C	0.1	·
CCN(C(=O)CSc1cccc[n+]1[O-])C1CCCCC1	2.9	·
COc1ccccc1-n1cnnc1SCC(N)=O	-1.0	·
O=c1c2ccccc2nc(SCCN2CCCCC2)n1CC1CCCO1 (stereo not given)	0.0	-0.43
O=S(=O)(NCCSc1nnc(-c2ccco2)n1-c1ccccc1)c1ccccc1	0.2	2
CC(C)NC(=O)CSc1nncn1-c1ccccc1	1.3	·
C=CCn1c(Sc2ncnc3sccc23)nc2ccccc2c1=O	-1.4	·
N#Cc1c(SCC(=O)NCCc2ccccc2)sc2c(=O)[nH]c(=O)[nH]c12	1.2	1.1
CC(=O)Nc1nnc(SCc2ccccc2)s1	-1.7	·
CCS(=O)(=O)CCSc1nc(C)cc(C)n1	0.2	·
O=C(CSc1nnnn1-c1ccccc1)c1ccccc1	-2.0	·
C=CCn1c(SCC(=O)Nc2ccc3[nH]c(=O)[nH]c3c2)nnc1-c1ccccc1F	1.1	·
CC(NC(=O)CSc1ncccn1)c1ccccc1 (stereo not given)	2.6	-0.38
CC(C)OC(=O)CSc1nc2cc3c(cc2cc1C#N)OCO3	-0.7	0.93
COc1ccc(-c2nnc(SC(C)C(=O)NC34CC5CC(CC(C5)C3)C4)o2)cc1 (stereo not given)	-1.6	·

Some of the compounds tested. The share of hits here may be higher or lower than overall.
